Env fusion inh = HIV envelope-mediated fusion inhibition | 360,000 tested, 1.1% active | inhibition, % at 12.3 µM | HeLa-JRFL Env/CEM21 cell fusion, luciferase;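 active means mean replicate inhibition score of at least 50 and every replicate individually at or above 50; inconclusive means only one of the two criteria met; inactive means mean below 50 and not all replicates reaching 50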;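 further: 0% = plate neutral controls and 100% = maraviroc near 300 nM; one replicate is shown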
* marks the source's active call; other numbers are inactive results; [ ] = remark or other dose. The list is partial; the hit share may differ from the screen's.

CN1C(=O)c2cc(NC(=O)C3CCCCC3)ccc2OC[C@H]2O[C@@H](CC(=O)NCc3ccccc3F)CC[C@@H]21 was read as Env fusion inh 9[16.7 µM].
`COc1ccc2c3c([nH]c2c1)[C@H](CO)N(C(=O)c1ccc(F)cc1)CC31CN(C(=O)Nc2cccc(F)c2)C1` gave Env fusion inh -14[16.7 µM].
CN(C)C(=O)C[C@H]1C[C@@H]2c3cc(NC(=O)CC4CC4)ccc3O[C@@H]2[C@H](CO)O1 was read as Env fusion inh -6[16.7 µM].
`C[C@H](CO)N1C[C@H](C)[C@@H](CN(C)Cc2ccncc2)Oc2ccc(NC(=O)Cc3cn(C)c4ccccc34)cc2C1=O` gave Env fusion inh 1[16.7 µM].
COC(=O)C[C@@H]1CC[C@@H]2[C@@H](COc3ccc(NS(=O)(=O)c4ccccc4Cl)cc3C(=O)N2C)O1 was read as Env fusion inh -21[16.7 µM].
Screening CSc1nn(CCC#N)c(=O)[nH]c1=O returned Env fusion inh -89.
Screening CO[C@@H]1CN(C)C(=O)c2cc(NC(=O)C3CCOCC3)ccc2OC[C@@H](C)N(CC2CC2)C[C@@H]1C returned Env fusion inh 2[16.7 µM].
COC(=O)c1ccc2nc(-c3ccco3)c(Cc3ccccc3OC)n2c1 was read as Env fusion inh 14.
Screening COc1ccc(-c2cn(CC[C@@H]3CC[C@H](NC(=O)CCN4CCCCC4)[C@H](CO)O3)nn2)cc1 returned Env fusion inh 14[16.7 µM].
Screening COc1ccc(NC(=O)Nc2cccc3c2O[C@@H](CN(C)Cc2ccc4c(c2)OCO4)[C@@H](C)CN([C@@H](C)CO)C3=O)cc1 returned Env fusion inh -23[16.7 µM].
For CCCN1C[C@@H](C)[C@H](OC)CN(C)C(=O)c2cc(NC(=O)c3cnccn3)ccc2OC[C@@H]1C the results were Env fusion inh 31[16.7 µM].
CO[C@H]1CN(C)C(=O)c2cc(NS(=O)(=O)c3c(C)noc3C)ccc2OC[C@@H](C)NC[C@H]1C was read as Env fusion inh 2[16.7 µM].
Cc1ccccc1-c1ccc2c(c1)O[C@H](CN(C)C(=O)Nc1ccc(F)cc1)[C@H](C)CN([C@@H](C)CO)S2(=O)=O was read as Env fusion inh 13[16.7 µM].
`Cc1ccc(-c2nc3c4ccccc4ccn3c2Cc2cccc(F)c2)cc1` gave Env fusion inh -13.
For COC(=O)C1=C(C)N(Cc2ccc(Br)cc2)C(=S)NC1c1ccc(OC)cc1 (stereo not given) the results were Env fusion inh 34.
`C[C@H]1CN([C@@H](C)CO)C(=O)c2cc(NC(=O)Cc3ccccc3)ccc2O[C@@H]1CN(C)Cc1ccc(C(=O)O)cc1` gave Env fusion inh 1[16.7 µM].
Screening COc1ccc2c3c([nH]c2c1)[C@@H](CO)N(Cc1ccccc1)CC31CN(C(=O)c2cccnc2)C1 returned Env fusion inh -36[16.7 µM].
`C[C@H](CO)N1C[C@H](C)[C@H](CN(C)C(=O)C2CCC2)Oc2cc(-c3ccncc3)ccc2S1(=O)=O` gave Env fusion inh 11[16.7 µM].
For CN1CCN(C(=O)C[C@@H]2CC[C@@H]3[C@H](COC[C@@H](O)CN3CC3CCOCC3)O2)CC1 the results were Env fusion inh 5[16.7 µM].
C[C@H](CO)N1C[C@H](C)[C@@H](CN(C)CC2CCOCC2)Oc2ncc(C#C[C@@H](C)O)cc2C1=O was read as Env fusion inh -10[16.7 µM].
Screening CCN(Cc1ccccc1)C(=O)Nc1c(Cl)cccc1Cl returned Env fusion inh -5.
`COc1ccccc1S(=O)(=O)Nc1ccc2c(c1)C(=O)N(C)C[C@@H](OC)[C@@H](C)CN[C@H](C)CO2` gave Env fusion inh -19[16.7 µM].
For COC(=O)C[C@@H]1CC[C@@H]2[C@@H](COc3ccc(NC(=O)c4cccc(Cl)c4)cc3C(=O)N2C)O1 the results were Env fusion inh 26[16.7 µM].
COCc1[nH]nc2c1C(c1ccc(C)cc1)NC2=O (stereo not given) was read as Env fusion inh -5.
For C[C@H](CO)N1C[C@H](C)[C@H](CN(C)C(=O)c2ccc(F)cc2)OCc2ccccc2-c2ccccc2C1=O the results were Env fusion inh 9[16.7 µM].
CN(C)c1cccc2c(S(=O)(=O)NCC3CCN(C(=O)C(=O)c4cc5ccccc5o4)CC3)cccc12 was read as Env fusion inh 11.
CO[C@@H]1CN(C)C(=O)c2cc(NC(=O)C3CC3)ccc2OC[C@H](C)N(C(=O)c2cccnc2)C[C@H]1C was read as Env fusion inh 4[16.7 µM].
For CC(C)C[C@H]1COc2c(Cl)cccc2S(=O)(=O)N1 the results were Env fusion inh 10.
`O=C1O[C@H](c2ccccc2)[C@H](c2ccccc2)N2[C@H]1[C@@H](C(=O)N1CCCCCCC1)[C@]1(C(=O)Nc3ccc(C#CC4=CCCCC4)cc31)[C@H]2c1ccc(OCCO)cc1` gave Env fusion inh -16[16.7 µM].
For COc1ccc(-c2ccc3c(n2)CCCN3Cc2ccccc2C(F)(F)F)cc1 the results were Env fusion inh -51.
`CCc1c(-c2ccccc2F)ncn1CCc1ccccc1OC` gave Env fusion inh inconclusive.
C[C@@H]1CN([C@@H](C)CO)S(=O)(=O)c2ccc(-c3cccnc3)cc2O[C@H]1CN(C)C(=O)C1CC1 was read as Env fusion inh 42[16.7 µM].
C[C@@H]1CN([C@H](C)CO)C(=O)c2cc(NC(=O)C3CC3)ccc2O[C@@H]1CN(C)C(=O)Nc1ccc(F)cc1 was read as Env fusion inh inconclusive.
Screening C[C@@H]1C=CCCO[C@]12C(=O)N(CC1CC1)c1ccccc12 returned Env fusion inh 1.
For CNC[C@@H]1Oc2c(NC(=O)c3cnccn3)cccc2C(=O)N([C@@H](C)CO)C[C@@H]1C the results were Env fusion inh 1[16.7 µM].
Screening COc1cccc(-c2ccc3c(c2)[C@H]2[C@H](CCN2C(=O)NC2CCCCC2)[C@@H](CO)N3C)c1 returned Env fusion inh 37[16.7 µM].
`C[C@@H]1CN([C@H](C)CO)C(=O)Cc2cc(NS(=O)(=O)c3ccc(Cl)cc3)ccc2O[C@@H]1CN(C)Cc1ccc(-c2ccccc2)cc1` gave Env fusion inh -59[16.7 µM].
`COCc1[nH]nc2c1C(c1ccc(F)cc1)N(c1ccc(OC)cc1)C2=O` (stereo not given) gave Env fusion inh -1.
COCc1cc(N2CCNC[C@H]2C)ccc1N1CCN(Cc2ccccc2)[C@H](C)C1 was read as Env fusion inh 20.
For CCCCOCCCNC(=O)C[C@H]1C[C@@]2(C(=O)OC)C(=C[C@H](C(C)(C)C)O[C@@H]2C)N(Cc2ccccc2)C1=O the results were Env fusion inh -3.
Screening C[C@H](CO)N1C[C@H](C)[C@@H](CN(C)Cc2ccc(C(=O)O)cc2)Oc2ccc(NC(=O)C3CC3)cc2C1=O returned Env fusion inh -12[16.7 µM].
`CC(C)COC(=O)N(C)C[C@H]1OCc2ccccc2-c2c(n(C)c3ccccc23)C(=O)N([C@@H](C)CO)C[C@H]1C` gave Env fusion inh 13[16.7 µM].
C[C@H](O)[C@@H]1C(=O)N2CCc3c([nH]c4c(-c5ccccc5)cccc34)[C@@H]2C[C@@H]1N(C)C(=S)Nc1ccc(C#N)cc1 was read as Env fusion inh -14.
Screening CO[C@@H]1CN(C)C(=O)c2cc(NC(=O)C3CC3)ccc2OC[C@H](C)N(CCc2ccccc2)C[C@H]1C returned Env fusion inh 12[16.7 µM].
For O=C(C[C@H]1C[C@H]2c3cc(NC(=O)c4ccc5c(c4)OCO5)ccc3O[C@H]2[C@@H](CO)O1)NCCN1CCCCC1 the results were Env fusion inh 27[16.7 µM].
`COCCNC(=O)C[C@@H]1C[C@H]2c3cc(NC(=O)Nc4ccc(C(F)(F)F)cc4)ccc3O[C@H]2[C@@H](CO)O1` gave Env fusion inh 1[16.7 µM].
CO[C@H]1CN(C)C(=O)c2cc(NC(=O)NC(C)C)ccc2OC[C@@H](C)N(C(=O)C2CCC2)C[C@H]1C was read as Env fusion inh 20[16.7 µM].
`COc1ccccc1C(=O)N1CCN(C(=O)[C@H]2O[C@@H](n3cnc(C(N)=O)n3)[C@H](O)[C@@H]2O)CC1` gave Env fusion inh -12.
Screening CNC[C@H]1Oc2ccc(NS(=O)(=O)c3ccccc3)cc2CC(=O)N([C@H](C)CO)C[C@@H]1C returned Env fusion inh 25[16.7 µM].
O=C(NCC[C@H]1CC[C@H](NC(=O)c2cccnc2)[C@H](CO)O1)Nc1ccc(C(F)(F)F)cc1 was read as Env fusion inh 6[16.7 µM].
For COc1ccccc1S(=O)(=O)N[C@@H]1CC[C@@H](CC(=O)NCc2cccc(F)c2)O[C@H]1CO the results were Env fusion inh -17[16.7 µM].
CCOC(=O)C1CSCCS(=O)(=O)N1Cc1ccc(F)cc1F (stereo not given) was read as Env fusion inh 8.
`COc1ccc(C(=O)c2[nH]c(N)c(C(=O)NCCc3c[nH]c4ccccc34)c2-c2ccccc2C(F)(F)F)cc1` gave Env fusion inh -38.
For CC(C)NC(=O)Nc1ccc2c(c1)CC(=O)N([C@@H](C)CO)C[C@H](C)[C@H](CN(C)Cc1ccc3c(c1)OCO3)O2 the results were Env fusion inh -8[16.7 µM].
`CC(C)NC(=O)N(C)C[C@H]1OCCCC[C@H](C)Oc2ccc(NC(=O)Cc3ccccc3)cc2C(=O)N([C@H](C)CO)C[C@@H]1C` gave Env fusion inh -20[16.7 µM].
Screening COC(=O)c1cc2c(c3c4cc(F)ccc4n(S(=O)(=O)c4cccc(C)c4)c13)C(=O)N(Cc1ccco1)C2 returned Env fusion inh -8.
`COc1ccc2c3c([nH]c2c1)[C@@H](CO)N(C(=O)Nc1ccc(F)cc1)CC31CCN(Cc2cc(-c3ccccc3)on2)CC1` gave Env fusion inh 34[16.7 µM].
`C[C@@H]1CN([C@H](C)CO)S(=O)(=O)c2ccc(C#CCN(C)C)cc2O[C@@H]1CN(C)S(=O)(=O)c1cccc(F)c1` gave Env fusion inh 3[16.7 µM].
`Cc1cc2c(nc1C)CCCN2S(=O)(=O)c1ccc(F)cc1` gave Env fusion inh 7.
CO[C@H]1CN(C)C(=O)c2ccc(NC(=O)Nc3c(C)noc3C)cc2OC[C@@H](C)NC[C@H]1C was read as Env fusion inh -11[16.7 µM].
Screening CO[C@H]1CN(C)C(=O)c2ccc(NC(=O)C3CCC3)cc2OC[C@H](C)N(CC2CCCCC2)C[C@H]1C returned Env fusion inh 6[16.7 µM].
For Cc1ccc(S(=O)(=O)N2CCCN(Cc3nc4ccccc4c(=O)[nH]3)CC2)cc1 the results were Env fusion inh -120.
For CN(C)c1ccc2c(c1)[C@@H]1C[C@@H](CC(=O)NCc3ccc4c(c3)OCO4)O[C@@H](CO)[C@@H]1O2 the results were Env fusion inh 12[16.7 µM].
For C[C@H](CO)N1C[C@H](C)[C@H](CN(C)S(=O)(=O)c2cccc(C#N)c2)OCc2ccccc2-c2ccccc2C1=O the results were Env fusion inh 41[16.7 µM].
`C[C@H](NC(=O)C[C@H]1CC[C@H]2[C@@H](COc3ccc(NS(=O)(=O)c4ccc(Cl)cc4)cc3C(=O)N2C)O1)c1ccccc1` gave Env fusion inh -1[16.7 µM].
Screening CC(C)NC(=O)N(C)C[C@@H]1OCCCC[C@@H](C)Oc2ccc(NC(=O)Cc3ccccc3)cc2C(=O)N([C@H](C)CO)C[C@@H]1C returned Env fusion inh -24[16.7 µM].
Screening COCC(=O)Nc1ccc2c(c1)C(=O)N(C)C[C@H](OC)[C@H](C)CN[C@@H](C)CO2 returned Env fusion inh 14[16.7 µM].
For CCCCCCCCN1C(=O)[C@@H](CC(=O)NCCCOCCCC)C[C@@]2(C(=O)OC)C1=C[C@H](C(C)(C)C)O[C@@H]2C the results were Env fusion inh 28.
For COC(=O)C1=C(C)N(C)C(=NCc2cccc(C(F)(F)F)c2)NC1c1cccc(F)c1 (stereo not given) the results were Env fusion inh 0.
For CN(C)C(=O)[C@H]1[C@H](CO)[C@H]2Cn3c(ccc(C4=CCCC4)c3=O)[C@@H]1N2CCC(F)(F)F the results were Env fusion inh -25[16.7 µM].
Screening CO[C@H]1CN(C)C(=O)c2cc(NC(=O)c3ccno3)ccc2OC[C@H](C)N(S(C)(=O)=O)C[C@H]1C returned Env fusion inh 16[16.7 µM].

Screening data: PubChem, Broad Institute
